ALR inh – human ALR oxidase inhibition via reduced H2O2; purified ALR, DTT oxidation, H2O2 HRP-luminol luminescence; AID 485317; P55789; 290,000 compounds, 3.8% hits; inhibition, % (concentration not given with the values);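 active = mean and each replicate at 75% or more; inconclusive = only one of the two met; inactive = neither met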;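 also: stock transfer was 7.5 nL into about 7.5 µL; 0% = neutral wells and 100% = wells with inactivated enzyme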
Target sequence (P55789 whole entry, looked up): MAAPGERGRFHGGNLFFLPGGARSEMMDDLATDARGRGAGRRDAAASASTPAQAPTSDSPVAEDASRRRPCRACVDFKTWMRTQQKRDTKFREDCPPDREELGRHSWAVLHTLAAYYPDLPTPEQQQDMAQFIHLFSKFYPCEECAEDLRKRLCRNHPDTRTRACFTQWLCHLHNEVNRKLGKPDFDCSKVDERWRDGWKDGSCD
HNF4A DNA FP – change in binding of human HNF4 alpha to DNA | 360,000 compounds, 0.3% hits | P41235 | HNF4a-FITC DNA binding, fluorescence polarization, 1 h | activity change, % at 10 µM; in the data active = activity change above about 30%, passing the limit was not always enough;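 also: controls were the assay level and a saturating level of protein; the project sought stronger binding though the title names inhibitors; some compounds called inactive have numbers as strong as hits; positive values seem to mean higher polarization but the record does not say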
Target sequence (P41235 whole entry, looked up): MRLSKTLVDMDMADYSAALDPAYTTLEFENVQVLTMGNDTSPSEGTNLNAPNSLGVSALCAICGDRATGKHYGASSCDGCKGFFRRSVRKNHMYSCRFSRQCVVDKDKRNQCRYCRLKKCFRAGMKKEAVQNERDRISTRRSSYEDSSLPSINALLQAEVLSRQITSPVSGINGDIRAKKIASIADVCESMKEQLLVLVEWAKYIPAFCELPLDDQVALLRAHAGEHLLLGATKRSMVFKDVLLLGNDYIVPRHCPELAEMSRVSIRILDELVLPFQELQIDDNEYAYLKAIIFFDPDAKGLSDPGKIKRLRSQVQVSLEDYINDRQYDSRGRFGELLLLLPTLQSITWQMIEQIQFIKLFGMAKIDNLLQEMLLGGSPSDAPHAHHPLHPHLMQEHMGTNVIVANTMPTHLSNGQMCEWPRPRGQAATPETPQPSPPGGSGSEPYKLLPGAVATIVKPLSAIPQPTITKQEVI
AF4-AF9 inh – MLL-AF4/AF9 protein interaction inhibition; AlphaScreen, biotin-AF4 peptide binding to FLAG-AF9; P42568; inhibition, % at 10 µM; 350,000 compounds, 0.47% hits;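 active = every replicate reaching a set inhibition limit, whatever the replicate mean, cut at about 25% in these data; inconclusive = mean inhibition reaches that limit but some replicates miss it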;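 also: 0% = plate neutral control median and 100% = total signal loss; the record names both 10 and 1 µM as test concentration; the first replicate is given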
FGF22 binding – shifts melting point of recombinant human FGF22; Q9HCT0; recombinant FGF22 thermal shift, SYPRO orange fluorescence; percent of sucrose octasulfate shift, DMSO zero; 340,000 compounds, 1.5% hits; calls only at 9.99 µM;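 active = melting point raised past a set limit in the mean and every replicate; inconclusive = no clear call; three in four hits are not shown here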
Target sequence (Q9HCT0 whole entry, looked up): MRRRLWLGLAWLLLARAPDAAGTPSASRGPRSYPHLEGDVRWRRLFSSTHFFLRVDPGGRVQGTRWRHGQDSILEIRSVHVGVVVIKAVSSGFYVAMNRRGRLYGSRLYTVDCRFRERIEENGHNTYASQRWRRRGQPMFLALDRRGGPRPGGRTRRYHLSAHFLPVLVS
Ecoli growth – E. coli growth inhibition; Escherichia coli growth, OD600, 23 h; active compounds read low; OD600 absorbance (concentration not given with the values); 330,000 compounds, 0.21% hits; AID 1053175;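 active = OD600 absorbance below the run mean of sample wells minus 3.6 SD, in any replicate, cut at about 0.56 in these data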;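 also: stock transfer was 300 nL into about 60 µL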
Vif TR-FRET – HIV-1 Vif–A3G interaction blockers – biochemical, TR-FRET, GST-Vif 1-94, biotin-A3G peptide, dose response retest, primary screen (AID 1117319). TR-FRET GST-Vif / biotin-A3G peptide binding; higher % means a stronger effect; test concentration not given here; strong numbers were not always called active. one-dose inhibition, %; IC50 in µM for titrated hits. 260,000 compounds, 0.57% hits;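 active = above the screen mean plus three standard deviations and confirmed in dose response; inconclusive = results disagree or hit not tested in dose response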;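 also: Vif residues 1-94 fused to GST binding biotinylated APOBEC3G peptide 110-148; 0% = full assay without inhibitor and 100% = GST in place of GST-Vif; retest series ran down from 100 µM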
rRNA inh HTS – inhibitors of bacterial rRNA selective over humanized ribosomes | 350,000 compounds, 1.6% hits | AID 720706 | E. coli WT GFP vs humanized-ribosome RFP mutants, fluorescence, 24 h; active compounds read low; DMSO median 0, no signal -100 | GFP signal change (wild-type ribosome), % (concentration not given with the values);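 active = significant combined selectivity score with lowered wild-type GFP, culture density cut under 30%, mutant RFP and density less affected; inactive = any of these conditions unmet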; also: one replicate is shown; some compounds called inactive have numbers as strong as hits
rRNA inh HTS OD600 – recorded beside rRNA inh HTS, whose call it bears; OD600 change, %; measured here: OD600 growth;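 optical density of the mix in the first replicate; 0 = DMSO median and -100 = no signal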
rRNA inh HTS RFP – recorded beside rRNA inh HTS, whose call it bears; RFP signal change, %; measured here: RFP humanized mutant strains;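 first replicate; 0 = DMSO median and -100 = no signal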
Numbers without * were called inactive; i = inactive; ? = inconclusive; / = no result given.

SMILES	ALR inh	HNF4A DNA FP	AF4-AF9 inh	FGF22 binding	Ecoli growth	Vif TR-FRET	rRNA inh HTS	rRNA inh HTS OD600	rRNA inh HTS RFP
CC(C)(O)C#Cc1ccccc1C(=O)NC(CC(N)=O)C(=O)O (stereo not drawn)	7	3.1	/	/	0.71	4%	/	/	/
O=C1CC(C(=O)O)S/C(=N\NC(=O)c2ccccc2)N1 (stereo not drawn)	4	-1.1	7.0	i	0.72	1%	16	20	-9.5
Cc1nc(S(=O)(=O)N2CCN(C3c4ccccc4-c4ccccc43)CC2)cn1C	-9	-3.1	-1.0	i	0.63	2%	11	8	1.2
Cc1cccc(NC(=O)COC(=O)c2ccc3nc(C)c(C)nc3c2)c1	-1	-1.1	-4.8	i	0.67	/	6	9	-1.1
C=CCNc1nc(NCCNC(C)=O)c2sc(-c3ccccc3)cc2n1	/	-3.3	5.3	i	/	/	-4	4	-0.5
Nc1ccc(C(=O)NNC(=O)C2COc3ccccc3O2)cc1[N+](=O)[O-] (stereo not drawn)	-3	5.3	1.4	i	0.67	6%	-13	5	-1.8
COc1ccccc1CNC(=O)C[C@@H]1C=C[C@H](NC(=O)CC2CC2)[C@H](CO)O1	/	/	-3.1	i	/	/	2	4	-0.2
CCC1(CC)Cc2ccccc2-c2nc(NCCO)[nH]c(=O)c21	15	1.6	/	/	0.73	1%	/	/	/
Cc1ccc2c(c1)[C@@H]1[C@H](CO2)[C@H](c2ccccc2)[C@@]2(C)C(=O)N[C@H](C)C(=O)N12	-2	5.4	-6.5	i	/	/	-5	-1	-8.2
C/C=C/c1ccc(OCCCNCC(C)O)c(OC)c1 (stereo not drawn)	4	-0.4	/	/	/	-2%	/	/	/
CCN(CC)Cc1ccc(NC(=O)c2sc3cc(Cl)ccc3c2Cl)cc1	/	10	8.2	i	0.67	1%	-30	11	-0.6
NC(=O)C1CCN(C(=O)c2cccc3ccccc23)CC1	-44	-0.2	1.2	i	0.66	-12%	2	4	-1.6
CNNC(=O)C(=O)NNS(=O)(=O)c1ccccc1	/	-0.8	-2.9	i	0.69	0%	14	12	1.8
CC(C)N(CC#CC(O)(c1ccccc1)c1ccccc1)C(C)C	0	5.3	/	i	0.65	/	3	-1	5.4
COc1cccc(-c2cc(C(=O)NCCc3ccccc3)no2)c1	0	-1.3	/	/	0.73	-5%	/	/	/
Nc1nonc1-c1nc2ccccc2n1Cc1ccc(F)cc1Cl	0	6.7	/	/	0.72	4%	/	/	/
COc1cccc(-c2ccc3c(c2)[C@H]2[C@H](CCN2C(=O)c2ccc4c(c2)OCO4)[C@@H](CO)N3C)c1	/	/	-0.8	i	/	/	0	-3	26
CC1CCCN(CCCOc2ccccc2-c2ccccc2)C1 (stereo not drawn)	/	-1.3	0.0	i	0.65	?	-27	-28	-1.8
CC(C)C(c1nnnn1C1CCCC1)N1CCCCC1 (stereo not drawn)	/	-0.3	/	/	0.7	-2%	/	/	/
CCOc1ccc(C(=O)Nn2cnnc2)cc1OCC	-4	-0.8	-9.4	i	0.69	12%	12	20	6.6
COc1ccccc1-n1c(SCC(=O)Nc2ccccc2C)nc(O)cc1=O	10	-1.4	/	/	0.73	0%	/	/	/
C/C(=N\NS(=O)(=O)c1ccc([N+](=O)[O-])cc1)c1ccc(NC(=O)c2ccco2)cc1	-46	-0.6	-0.6	/	/	28%	12	12	0.0
CCN(CC)S(=O)(=O)c1ccc(Br)c(OC)c1	-3	1.8	/	/	0.68	-1%	/	/	/
O=C(CSc1n[nH]c(-c2ccccn2)n1)Nc1ccc(Cl)cc1	3	-2.6	-0.2	i	/	/	-53	-74	-19
CCOc1ccc(NC(=O)NC2CCCc3ccccc32)cc1 (stereo not drawn)	-8	0.2	-0.5	i	0.72	5%	5	14	0.1
CCn1c(SCC(=O)Nc2ccccc2C)nc2nc3c(cc2c1=O)COC(C)(C)C3	3	4.2	2.6	i	0.64	-7%	11	16	0.4
Cc1cnc(NC(=O)C2CCCO2)s1 (stereo not drawn)	-5	-0.7	5.1	i	0.71	30%	15	6	-4.8
COCC(=O)N1CCCCN2[C@H](CO)[C@@H](c3ccc(C#Cc4ccccc4)cc3)[C@H]2C1	/	/	10	i	/	/	6	-2	-0.4
COc1cc(C(=O)N2CCC(O)(c3ccccc3)CC2)cc(OC)c1OC	-4	-0.8	/	/	0.74	2%	/	/	/
Sc1nnc(-c2ccc(Cl)cc2)n1Cc1ccccc1	/	2.6	-0.3	i	0.73	-28%	-9	-23	-6.3
O=C(O)C(F)=C1c2ccccc2-c2ccccc21	0	0.2	-3.4	i	0.67	/	-30*	-9.8*	-4.0*
COc1ccc(C(CNC(=O)Cc2ccccc2Cl)N2CCCCC2)cc1 (stereo not drawn)	-27	-1.1	2.2	i	/	-1%	5	8	-0.4
C[C@H]1CN([C@@H](C)CO)S(=O)(=O)c2ccc(C#CC3CC3)cc2O[C@@H]1CN(C)Cc1ccccc1	/	/	3.0	i	/	/	-5	-25	1.5
CS(=O)(=O)Nc1ccc(C(=O)CSc2nnc(C3CC3)n2C2CC2)cc1	/	1.9	2.1	i	0.7	4%	-6	3	-2.1
COCC(C)NC(=O)COc1ccc(Cl)cc1Cl (stereo not drawn)	-1	-2.5	/	/	0.68	16%	/	/	/
Cc1ccc(Cl)cc1Nc1nc(-c2sc(NC(=O)c3ccco3)nc2C)cs1	/	10	2.4	i	0.7	9%	-3	5	6.2
CCc1ccc(CN(C)C(=O)C2CCC(=O)N(Cc3ccccn3)C2)cc1 (stereo not drawn)	0	0.4	0.2	i	/	/	5	2	-1.4
Cc1cc(C(=O)Nc2cccc3c2O[C@H](CN(C)S(=O)(=O)c2c(C)noc2C)[C@H](C)CN([C@@H](C)CO)C3=O)n(C)n1	/	/	2.2	i	/	/	-11	-6	-0.5
NC(c1csc(Nc2nncc3ccccc23)n1)C1CCCCC1 (stereo not drawn)	/	3.8	16	i	/	/	/	/	/
COc1ccc(CCn2c(=N)c(C(=O)NCC3CCCO3)cc3c(=O)n4cccc(C)c4nc32)cc1 (stereo not drawn)	-31	0.3	2.8	i	/	/	-1	-2	0.8
C[C@H](CO)N1C[C@H](C)[C@@H](CN(C)CC2CC2)OCCCC[C@H](C)Oc2ccc(NC(=O)Nc3ccc4c(c3)OCO4)cc2C1=O	/	/	29*	i	/	/	4	6	-0.4
CN(C(=O)COc1ncnc2ccc(Br)cc12)C1CCCCC1	/	2.5	-16	/	/	2%	8	7	0.4
Cc1csc(NC(=O)NCC2CCCC(CNC(=O)Nc3nc(C)cs3)C2)n1 (stereo not drawn)	14	1.6	3.7	i	0.7	/	-2	-20	0.9
Cc1cc(N2CCN(C)CC2)nc2ccc(NC(=S)NCCCN3CCc4ccccc4C3)cc12	-82	-0.1	24	i	0.68	31%	4	-1	-2.3
COc1ccc(-c2nc(N)nc(C(F)(F)F)c2-c2cscn2)c(O)c1	/	1.4	0.7	i	0.73	29%	8	3	-6.2
CC(C)CN1C=C2C(=O)C(C)(OC(=O)C3CCCC3)C(=O)C=C2C=C1c1ccsc1 (stereo not drawn)	-12	-2.5	6.3	i	0.69	29%	9	3	13
COc1ccc(CNC(=O)CSc2ccsc2[N+](=O)[O-])cc1	60	7.0	0.2	i	0.69	14%	1	-5	3.3
O=C(CSc1ccccc1C(=O)O)Nc1cccc(C(=O)O)c1	-2	6.2	/	/	0.7	-1%	/	/	/
Cc1ccsc1C(=O)OCc1nc2ccsc2c(=O)[nH]1	9	-4.8	-5.5	i	0.61	4%	-9	-8	-5.0
CCOC(=O)C1CCCN(C(=O)CSc2ccccc2)C1 (stereo not drawn)	-3	4.3	0.2	i	0.69	-5%	/	/	/

Records listed above marked active in AF4-AF9 inh.
mol	ALR inh	HNF4A DNA FP	AF4-AF9 inh	FGF22 binding	Vif TR-FRET	rRNA inh HTS	rRNA inh HTS OD600	rRNA inh HTS RFP
C[C@H](CO)N1C[C@H](C)[C@@H](CN(C)CC2CC2)OCCCC[C@H](C)Oc2ccc(NC(=O)Nc3ccc4c(c3)OCO4)cc2C1=O	/	/	29*	i	/	4	6	-0.4

(listing goes on)
SMILES	ALR inh	HNF4A DNA FP	AF4-AF9 inh	FGF22 binding	Ecoli growth	Vif TR-FRET	rRNA inh HTS	rRNA inh HTS OD600	rRNA inh HTS RFP
CO[C@H]1CN(C)C(=O)c2cc(NC(=O)NC(C)C)ccc2OC[C@H](C)N(Cc2ccc(-c3ccccn3)cc2)C[C@@H]1C	/	/	4.1	i	/	/	-1	-3	2.8
Cc1cccc(NC(=O)C2CCCN(S(=O)(=O)c3cccc4nsnc34)C2)n1 (stereo not drawn)	3	-0.8	/	/	0.74	0%	/	/	/
COc1ccccc1NS(=O)(=O)c1ccccc1C#N	11	-0.5	/	/	0.62	-2%	/	/	/
CC(C)[C@H](NC(=O)NC1CCN(Cc2ccccc2)CC1)C(=O)O	0	2.7	-9.8	i	0.69	-2%	11	2	-5.6
COc1ccc(C(=O)/C=C\N2CCOCC2)cc1	54	-0.6	/	/	/	2%	/	/	/
O=C(NCCCNC(=O)c1ccc(-c2cc(Cl)ccc2Cl)o1)c1cnccn1	0	3.0	-1.1	i	0.65	/	-43	-58	-0.4
Clc1ccc(Cl)c(Oc2ccc(Oc3nc(Cl)ccc3Cl)cc2)n1	-23	-0.6	/	/	0.68	-3%	/	/	/
CC1CN(C(=O)C2CC(=O)N(c3ccc(Cl)cc3)C2)CC(C)O1 (stereo not drawn)	2	-1.0	3.7	i	0.68	/	8	10	1.0
CCOC1=C/C(=C/c2c(N)n3nc(-c4ccccc4)sc3nc2=O)C=CC1=O	/	32	-1.8	i	0.65	-6%	-22	-29	1.0
Cc1c(CC(=O)O)c(=O)oc2cc3oc4c(c3cc12)CCCC4	/	1.3	-1.2	i	0.65	?	-14	-11	-0.7
O=C(Nc1ccccc1)NC1CCCCCCC1	10	3.0	1.6	i	0.65	/	/	/	/
COc1ccc(C(=O)O)nc1C	0	-1.2	-5.5	i	0.68	/	4	12	-1.1
CCOc1ccccc1C(=O)OCC(=O)NCCc1ccc(OC)cc1	5	-4.0	0.1	i	0.71	-12%	-22*	-12*	-4.2*
CCOC(=O)C(NC(=O)c1ccccc1)(OCC1(CC)COC1)C(F)(F)F (stereo not drawn)	-7	-0.4	/	/	0.69	-6%	/	/	/
CN(C)C(=O)C[C@@H]1CC[C@H]2[C@@H](COc3ccc(NC(=O)C4CCOCC4)cc3C(=O)N2C)O1	/	/	0.1	i	/	/	3	3	-0.6
Cc1onc(-c2ccccc2)c1C(=O)Nc1nnc(C(C)(C)C)s1	6	-5.8	3.0	i	0.67	/	1	-38	-5.6
CO[C@@H]1CN(C)C(=O)c2cc(NS(=O)(=O)CC(F)(F)F)ccc2OC[C@@H](C)N(CC2CCCCC2)C[C@@H]1C	/	/	-0.2	i	/	/	4	1	0.4
COc1ccc(CN(C)C[C@@H]2OCCCC[C@H](C)Oc3ccc(NS(=O)(=O)c4ccc(Cl)cc4)cc3C(=O)N([C@@H](C)CO)C[C@H]2C)cc1	/	/	-0.7	i	/	/	-9	-48	33

Screening data: PubChem, several laboratories

Only part of the results is shown, so the mix of outcomes need not match the whole.
